Compound activity deposited in PubChem BioAssay by National Center for Advancing Translational Sciences (NCATS).
TRPML1 agonist: activates the human TRPML1 channel. Q9GZU1. TRPML1-expressing cells, Ca2+ dye fluorescence, FDSS; host cell line not named in the record; reference of the full effect not given here. activation, % (concentration not given with the values). hit rate 0.12% among 410,000. AID 624414; in the data active = activation above about 50%; inconclusive = about 30% to 50%; inactive = below about 30%; also: 0% is about no effect; the text of the record puts the active cut at 80%
Target sequence (Q9GZU1 whole entry, looked up): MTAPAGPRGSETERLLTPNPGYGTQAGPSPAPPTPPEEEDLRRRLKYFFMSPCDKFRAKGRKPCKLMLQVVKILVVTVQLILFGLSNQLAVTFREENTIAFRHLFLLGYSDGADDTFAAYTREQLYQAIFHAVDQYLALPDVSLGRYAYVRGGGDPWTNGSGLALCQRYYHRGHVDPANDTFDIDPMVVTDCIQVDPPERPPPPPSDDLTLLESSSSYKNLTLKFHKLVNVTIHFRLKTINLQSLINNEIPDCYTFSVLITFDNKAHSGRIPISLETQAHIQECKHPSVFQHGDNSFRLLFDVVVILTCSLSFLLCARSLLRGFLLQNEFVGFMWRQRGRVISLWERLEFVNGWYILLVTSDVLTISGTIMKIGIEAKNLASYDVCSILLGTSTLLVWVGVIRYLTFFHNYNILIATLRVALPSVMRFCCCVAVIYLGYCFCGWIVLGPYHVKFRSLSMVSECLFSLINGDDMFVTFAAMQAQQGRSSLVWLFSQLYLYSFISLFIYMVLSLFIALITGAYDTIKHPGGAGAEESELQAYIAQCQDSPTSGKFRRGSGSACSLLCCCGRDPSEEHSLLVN
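Tetracycline-induced TRPML1-DL cells are seeded and incubated overnight before loading with a no-wash Ca2+ dye and quencher. Agonist activity is taken from the 110 s fluorescence read following compound pin-transfer on an FDSS, before EC80 54-4 challenge.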
D2 PAM: positive allosteric modulators of human D2 dopamine receptor; P14416; DiscoveRx D2 beta-arrestin cells, luminescence, 90 min; 100% = 57 uM dopamine signal; potentiation, % (test concentration not listed); hit rate 0.23% among 360,000; active = potentiation of 50% or more; inconclusive = 30% to 50%; inactive = 30% or less;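 also: compound concentration not given in the record; tested on top of an EC20 dose of dopamine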
Target sequence (P14416 whole entry, looked up): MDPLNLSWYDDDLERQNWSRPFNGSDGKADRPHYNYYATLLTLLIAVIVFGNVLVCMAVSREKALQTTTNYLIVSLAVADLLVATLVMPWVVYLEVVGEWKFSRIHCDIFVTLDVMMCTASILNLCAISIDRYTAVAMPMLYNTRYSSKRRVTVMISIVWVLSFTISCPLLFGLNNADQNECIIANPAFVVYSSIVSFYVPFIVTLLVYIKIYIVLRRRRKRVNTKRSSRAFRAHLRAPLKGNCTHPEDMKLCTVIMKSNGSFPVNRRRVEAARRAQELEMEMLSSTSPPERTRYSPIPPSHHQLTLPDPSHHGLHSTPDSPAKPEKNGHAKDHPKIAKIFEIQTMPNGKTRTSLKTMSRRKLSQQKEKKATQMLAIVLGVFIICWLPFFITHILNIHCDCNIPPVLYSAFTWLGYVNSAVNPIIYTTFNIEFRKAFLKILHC
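PathHunter D2 cells, attached overnight at 37 deg C, received compound in DMSO plus dopamine at EC20 (50 nM final) for 90 min at 37 deg C. Beta-arrestin recruitment was read as luminescence after 1 h with detection reagent at ambient temperature.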
D2 agonist: human D2 receptor agonism in beta-arrestin assay; P14416; DiscoveRx PathHunter D2 beta-arrestin, luminescence, 90 min; 100% = 57 uM dopamine signal; activation, % (test concentration not listed); hit rate 0.084% among 360,000; AID 624465; in the data active = activation above about 40%; inconclusive = about 15% to 40%; inactive = below about 15%; also: compound concentration not given in the record; the text of the record calls up to 30% inactive
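DiscoveRx PathHunter D2 beta-arrestin cells (2,100/well) attached overnight, then compound-stimulated 90 min at 37 C in HBSS/10 mM HEPES/0.1% Tween-20 buffer; beta-galactosidase complementation read by luminescence after 1 h at ambient temperature. Dopamine 57 uM final (EC100) as control.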
CtBP-E1A blk: CtBP/E1A binding inhibition; AlphaScreen GST-E1A/His-CtBP binding, 1536-well; hits give low values; control for the full effect not named in the record; activity change, % (no concentration beside the values); hit rate 0.49% among 340,000; in the data active means activity change below about -65%; inconclusive means about -30% to -65%; inactive means above about -30%; also: % is scaled to controls: 0 for no effect and ±100 for the full control effect; compound concentration not given in the record
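AlphaScreen with 125 nM GST-E1A and 125 nM His-CtBP (5X stocks) in Tris pH 8.0, 300 mM NaCl, BSA, Tween 20, TCEP. Compounds preincubated 2 h at 37 deg C, then glutathione donor/nickel acceptor beads added for 1 h at 37 deg C in dark.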
PINK1 modulator: PINK1 expression modulation. PINK1 immunofluorescence, high-content cytometry, 24 h. Potency, µM (doses to about 76.6 µM), for the others: at the top dose activation (PINK1 increase), usual class: activators. hit rate 0.2% among 410,000. AID 624263; active = well fitted activation curve with a large enough effect; inconclusive = small, poorly fitted or top-dose-only effect; inactive = flat fitted curve, though single readings scatter; cell line not stated here;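 also: potency is read from the fitted curve at half-maximal effect; % of control where 0% means no effect; nearly all actives have a fitted effect of over 65% in size; a mitochondrial uncoupler was the plate control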
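Cells are seeded, rested 12 hours, then given compound at five concentrations or DMSO for 24 hours. After fixation, blocking and antibody staining, PINK1 amount and mitochondrial localization are scored; CCCP serves as control.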
Six1-Eya2 inh: blocks human Six1 binding to Eya2; activity change, % (test concentration not listed); hit rate 0.56% among 360,000; AlphaScreen GST-Six1/His-Eya2 binding, biochemical; hits give low values; control for the full effect not named in the record; in the data active = activity change below about -65%; inconclusive = about -30% to -65%; inactive = above about -30%; also: % is scaled to controls: 0 for no effect and ±100 for the full control effect; compound concentration not given in the record
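Six1/Eya2 binding was read as AlphaScreen signal after compounds were pinned into GST-Six1 plus His-tagged Eya2 (5X stock 250/500 nM) in pH 8.0 Tris/NaCl/TCEP buffer, beads added, then incubated 1 h, 37 C, dark.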
Starred values were filed as active, the others as inactive; ? = inconclusive; . = no result given; & = joins results of further samples; [ ] = dose if it differs, or a comment.

Structure | PINK1 modulator | D2 agonist | Six1-Eya2 inh | TRPML1 agonist | D2 PAM | CtBP-E1A blk
CCN(CC)S(=O)(=O)c1ccc(-c2ccc(S(=O)(=O)N(CC)CC)cc2)cc1 | -2.5% | -1.7 | 4 | 2.6 | 8 | 2
CCOC(=O)C(NCCOC)(NC(C)=O)C(F)(F)F (stereo not given) | 3.2% | 4.4 | 6 | 0.1 | 0 | 3
O=C(CN1CCCc2ccccc21)Nc1ccccc1[N+](=O)[O-] | 0.1% | -4.3 | 0 | -0.9 | 0 | -23
Cc1nnc(NC(=O)CSc2nnc(Cc3ccccc3)n2-c2ccccc2)s1 | 0.0% | 8.0 | -3 | -0.7 | -27 | -4
NC(=O)c1ccc(C(=O)c2ccc([N+](=O)[O-])cc2)cc1 | -1.3% | 5.2 | 1 | -0.6 | 62* | 9
Cc1cc(=O)oc2cc(OCC(=O)NC3(C#N)CCCCC3)c(Cl)cc12 | -0.6% | -2.4 | -8 | 0.3 | -2 | -4
Cc1ccc2nc(NC(=O)c3ccc(Br)o3)sc2c1 | 7.3% | 4.5 | 2 | -0.8 | -3 | .
COc1ccc(Br)c(Cn2c(C)c(C(=O)NCc3ccc4c(c3)OCCO4)sc2=O)c1 | 0.9% | 4.4 | -11 | 0.5 | 4 | -9
CCCOC(=O)Nc1sc2c(c1C(=O)OCC)CCC2 | 1.2%[38.3 µM] | 0.6 | 18 | 0.4 | -5 | 8
O=C(CC1CC2CCC1C2)N1CCN(S(=O)(=O)c2ccccc2F)CC1 (stereo not given) | 0.1% | -2.4 | 2 | -0.1 | -10 | 3
CCOCCCNC(=O)c1cn(CC)c2ccc(S(=O)(=O)N3CCOCC3)cc2c1=O | -0.3%&-0.3% | -9.6 | 1 | 0.5&-0.2 | -9 | .
CCCC(=O)NNC(=O)CCC(=O)Nc1ccccc1Cl | 0.5% | -5.6 | 2 | 0.0 | -1 | 2
CC(=O)Nc1ccc(NC(=O)COC(=O)c2ccccn2)cc1 | -0.6% | 0.8 | -3 | 0.2 | -3 | 0
Cc1cn(-c2ccccc2)c(C)c1/C=N\Nc1nc(N2CCOCC2)nc(N2CCOCC2)n1 | 1.3% | -4.0 | 1 | 1.2 | -2 | .
Cc1ccc2nc3cc([N+](=O)[O-])cc([N+](=O)[O-])c3cc2c1 | -0.4% | -18 | -13 | 0.1 | 19 | 0
CC(C)CNS(=O)(=O)c1ccc(CCC(=O)N2CCOCC2)cc1 | -0.4% | -3.3 | 3 | -1.0 | -6 | 6
COc1ccc(CCNC(=O)NC23CC4CC(CC(C4)C2)C3)cc1 | 4.4%[38.3 µM] | -2.5 | 8 | -0.1 | -7 | 20
CCC(=O)c1ccc(OCC(O)CN2CCOCC2)cc1 (stereo not given) | -0.2% | 0.5 | 10 | 0.0 | -12 | 6
COc1cccc(Oc2cc(NN3CCCCC3)c([N+](=O)[O-])cc2[N+](=O)[O-])c1OC | 1.5% | 0.7 | -16 | -0.6 | -2 | -21
O=C1C2Sc3[nH]c(=O)sc3C(c3cc([N+](=O)[O-])ccc3O)C2C(=O)N1c1ccccc1 (stereo not given) | -1.6% | -8.0 | 0 | 0.4 | -7 | -26
Cc1ccc(S(=O)(=O)N2CCN(C(=O)N3CCCC3)CC2)cc1 | 1.9% | 2.4 | 2 | -0.1 | 0 | -13
CC(C)c1ccc(-c2c(C#N)c(N)nc(SCC(=O)N3CCCCC3)c2C#N)cc1 | 5.2% | -1.6 | 8 | 0.5 | -3 | -5
Cc1noc(C)c1NC(=O)N(C)C[C@H]1Oc2ccc(NS(=O)(=O)c3c(C)noc3C)cc2C(=O)N([C@H](C)CO)C[C@@H]1C | 2.2% | -6.8 | 6 | 0.2 | -4 | 3
O=C(NN=Cc1ccc([N+](=O)[O-])cc1)C1CC1 | 0.4% | 0.8 | -3 | 0.1 | -5 | 3
Cc1nc2ccccc2c(=O)n1NC(=O)c1cccc(Cl)c1 | 0.8% | -2.0 | 1 | -0.6 | -6 | 0
COc1ccc(C(=O)N(C)Cc2ccc(C)o2)cc1OC1CCN(C(C)C)CC1 | -1.7% | -4.3 | -11 | 0.0 | -13 | 18
O=C(CSc1nc2ccc([N+](=O)[O-])cc2s1)NCC1CCCO1 (stereo not given) | 0.2% | -1.0 | -5 | 0.3 | 7 | 8
O=C(Cc1ccc(F)cc1)NCCS(=O)(=O)N1CCN(c2ccccc2)CC1 | 9.8% | ? | 0 | -0.6 | -6 | 0
Cc1ccc(N(C)C(=O)CCS(=O)(=O)c2ccc3c(c2)oc(=O)n3C)cc1 | -1.1% | 0.2 | -1 | 0.0 | 0 | 6
CC(C)CCN1C(=O)c2ccc(C(=O)Nc3cccc(S(N)(=O)=O)c3)cc2C1=O | 6.7% | 2.5 | 0 | -0.5 | 10 | -1
Cc1cc(F)ccc1-c1cc(C(=O)NCc2cc(C(F)(F)F)cc(C(F)(F)F)c2)[nH]n1 | 4.5% | -2.0 | 4 | 0.9 | -7 | 4
COCCOC(=O)C(C#N)c1nc2ccccc2nc1N1CCCC1 (stereo not given) | 0.4% | -0.5 | -14 | 0.1 | -4 | -2
CCN(CC)S(=O)(=O)c1ccc(/C=C/C(=O)OCC(=O)Nc2ccc(C(N)=O)cc2)cc1 | 2.7% | -0.5 | -2 | -0.1 | -2 | 8
Cc1cc(C)nc(N/N=C/c2ccc([N+](=O)[O-])o2)n1 | -1.5% | 8.4 | -28 | 3.7 | 3 | ?
Cc1ccc2nc(C)cc(N/N=C/c3cccc(O)c3)c2c1 | 0.9% | -2.4 | ? | -1.5 | 1 | -19
C=CCc1ccc(OCC(O)CN2CCCCC2C)c(OC)c1 (stereo not given) | -0.7% | 0.3 | 1 | 0.7 | -16 | 1
CC(C)(CSc1ccccn1)NS(=O)(=O)c1ccccc1 | -1.9% | 0.3 | -4 | 1.5 | -10 | -1
O=C(NNC(=O)C1CC(=O)N(c2ccc3c(c2)OCCO3)C1)c1ccc(F)cc1 (stereo not given) | 2.9% | -0.5 | 9 | -0.5 | -3 | -17
CCOC(=O)N1CCN(c2ncnc3c2oc2nc(C(C)C)c4c(c23)CCC4)CC1 | -0.8% | -1.8 | 0 | -0.5 | -3 | 8
O=C(NNC(=O)c1csc(-c2cccs2)n1)c1ccc(Cl)cc1 | 5.2% | -7.1 | -8 | -0.2 | -6 | -2
Cc1nc2ccccc2c(=O)n1CC(=O)N1CCOCC1 | 0.1% | -1.6 | 2 | 0.2 | 12 | 4
COc1ccc(/C(=N/OC(C)=O)c2nccc3cc(OC)c(OC)cc23)cc1OC | 2.9% | -3.0 | -2 | -0.4 | -15 | .
CCOc1ccc(CCNC(=O)CN2CCN(Cc3ccccc3C)C2=O)cc1OCC | 1.1% | -1.2 | -13 | -0.2 | -24 | -1
C[C@@H]1O[C@@H](O[C@H]2[C@H](Oc3cc(O)c4c(c3)O[C@H](c3ccc(O)cc3)CC4=O)O[C@H](CO)[C@@H](O)[C@@H]2O)[C@H](O)[C@H](O)[C@H]1O | 1.1% | -3.7 | -2 | -0.8 | -2 | 4
COc1cc(C(c2sc3nc(C)nn3c2O)N2CCc3ccccc3C2)cc(OC)c1OC (stereo not given) | 0.0% | -3.5 | 2 | -0.2 | -8 | -26
C[C@H](CO)N1C[C@H](C)[C@@H](CN(C)Cc2ccncc2)Oc2c(NC(=O)c3ccncc3)cccc2C1=O | 0.8% | -3.2 | 5 | 0.0 | -2 | 3
Cc1ccc(Cl)cc1NC(=O)COC(=O)Cn1cnc2c1c(=O)n(C)c(=O)n2C | 0.1% | -3.1 | 28 | 0.9 | -7 | -12
CN(CCc1ccccc1)C(=O)c1ccc(NC(=O)Cc2ccc(NC(=O)C3CCN(C(=O)c4ccccc4)CC3)cc2)cc1 | 13% | -0.2 | 6 | 0.8 | -5 | 2

Reprinted at random: four entries already listed, in no set order.
Structure | PINK1 modulator | D2 agonist | Six1-Eya2 inh | TRPML1 agonist | D2 PAM | CtBP-E1A blk
C[C@H](CO)N1C[C@H](C)[C@@H](CN(C)Cc2ccncc2)Oc2c(NC(=O)c3ccncc3)cccc2C1=O | 0.8% | -3.2 | 5 | 0.0 | -2 | 3
CN(CCc1ccccc1)C(=O)c1ccc(NC(=O)Cc2ccc(NC(=O)C3CCN(C(=O)c4ccccc4)CC3)cc2)cc1 | 13% | -0.2 | 6 | 0.8 | -5 | 2
Cc1nc2ccccc2c(=O)n1CC(=O)N1CCOCC1 | 0.1% | -1.6 | 2 | 0.2 | 12 | 4
C[C@@H]1O[C@@H](O[C@H]2[C@H](Oc3cc(O)c4c(c3)O[C@H](c3ccc(O)cc3)CC4=O)O[C@H](CO)[C@@H](O)[C@@H]2O)[C@H](O)[C@H](O)[C@H]1O | 1.1% | -3.7 | -2 | -0.8 | -2 | 4

(continued)
Structure | PINK1 modulator | D2 agonist | Six1-Eya2 inh | TRPML1 agonist | D2 PAM | CtBP-E1A blk
Cc1cc(C)c2nc(-c3ccccn3)cc(C(=O)Nn3cnnc3)c2c1 | 5.4% | -1.8 | -1 | -1.3 | -11 | -7
O=C(CCc1nnc2ccc(NCc3ccco3)nn12)Nc1cc(F)ccc1F | 1.1% | 5.0 | -17 | 1.3 | -4 | .
CC1(C(=O)NCCc2c[nH]c3ccccc23)C=CC2(CCCCC2)N1C(=O)c1ccccc1 (stereo not given) | -0.3% | -1.5 | -10 | -0.1 | 5 | -2
CCOC(=O)CC(N)c1cccc([N+](=O)[O-])c1 (stereo not given) | 0.5% | 0.1 | 2 | -0.3 | 1 | 7
O=[N+]([O-])c1ccc(-c2nc(Nc3ccc(O)cc3)c3ccccc3n2)cc1 | 6.4% | 1.0 | -15 | -0.3 | 3 | -5
CN(C)C(=O)CCc1ccc2c3c([nH]c2c1)[C@]1(CCC2CCCC2)[C@@H](C(=O)N2CCOCC2)C[C@H](CC(=O)NCc2cccc(C(F)(F)F)c2)C(=O)N1CC3 | 3.7% | 1.2 | -5 | -0.6 | . | -8
COc1ccc(NC(=O)c2cc(-c3ccc4c(c3)OCO4)on2)cc1 | 1.5% | -1.6 | 9 | -0.5 | -1 | 2
Cc1c(N=NC2=C(O)CCCC2=O)c(=O)n(-c2ccccc2)n1C | 4.4% | -12 | -79* | -1.0 | -10 | -92*
N#C/C(=C\c1cccc([N+](=O)[O-])c1)C(=O)NCc1ccc(Cl)cc1 | -0.9% | 2.4 | -5 | 0.1 | 2 | 2
Cc1cccc(C(=O)NNC(=O)c2c(-c3ccccc3Cl)noc2C)c1O | 6.9% | -2.6 | -4 | 0.7 | -4 | -2
Cc1cc(C)nc(NS(=O)(=O)c2ccc(NC(=O)c3cccc(N4C(=O)CCC4=O)c3)cc2)n1 | -1.2% | 0.2 | 2 | 2.3 | -4 | 13
Cc1ccc(C(=O)C2=C(O)C(=O)N(c3ncccn3)C2c2ccc(Br)cc2)o1 (stereo not given) | -0.5% | 0.7 | 6 | -0.8 | -10 | 4
COc1cccc(/C=N/n2c(C)nc3ccccc3c2=O)c1O | -1.2% | -5.7 | -20 | 5.4 | -10 | ?
